High-throughput results as filed in PubChem.
Cruzain inh noDet: inhibitors of Trypanosoma cruzi cruzain without detergent. purified cruzain, Z-FR-AMC fluorescence, no detergent. AID 1476. P25779. hit rate 2.3% among 200,000. Potency, µM, for the others: max response, negative = inhibition, usual class: inhibitors; active = well fitted curve in the direction sought with a large enough effect; inconclusive = small, poorly fitted or top-dose-only effect, or another doubt; inactive = no such curve, though single readings can be large; an effect the other way counts as inactive or inconclusive;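 also: plate controls were enzyme without inhibitor for no effect and buffer without enzyme for full effect; nearly all actives have a fitted effect of over 40% in size; top concentration of the series not given in the record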
Target sequence (P25779 123-467 limits assumed): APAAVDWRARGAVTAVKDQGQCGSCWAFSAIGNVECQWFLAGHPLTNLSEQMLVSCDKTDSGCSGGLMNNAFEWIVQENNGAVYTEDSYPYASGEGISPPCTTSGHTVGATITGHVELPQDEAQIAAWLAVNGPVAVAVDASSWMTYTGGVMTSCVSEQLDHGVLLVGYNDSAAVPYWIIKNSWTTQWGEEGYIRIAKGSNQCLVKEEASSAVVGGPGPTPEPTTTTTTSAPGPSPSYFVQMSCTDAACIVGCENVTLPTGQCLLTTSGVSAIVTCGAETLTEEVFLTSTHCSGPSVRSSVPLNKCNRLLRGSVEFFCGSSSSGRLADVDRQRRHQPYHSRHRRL
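Purified cruzain at 1.5 nM, pre-incubated 15 min with compound at room temperature in 100 mM sodium acetate pH 5.5, 5 mM DTT, 0.00005% Triton X-100. Reaction started with 2 uM Z-FR-AMC; AMC fluorescence increase over 60 s gives rate.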
Lassa entry inh: inhibitors of Lassa virus binding or cell entry; Lassa virus pseudotype entry inhibition, cell reporter; control for the full effect not named in the record; Potency, µM (doses to about 37.9 µM), inactives show at the highest dose activity change, negative = inhibition, usual class: inhibitors; hit rate 1.2% among 300,000; active means well fitted inhibition curve with a large enough effect; inconclusive means small, poorly fitted or top-dose-only effect, or effect the other way; inactive means flat fitted curve, though single readings scatter; tested in HEK293 cells; also: % is scaled to controls: 0 for no effect and ±100 for the full control effect; nearly all actives have a fitted effect of over 50% in size; luciferase read-out
Marburg entry inh: blocks Marburg virus binding to or entry into cells; Marburg virus pseudotyped entry inhibition, cell reporter; control for the full effect not named in the record; about a third of the inactives were read at about 46 µM; Potency, µM (titrated, usually from 37.8 µM), without a hit: at the highest dose activity change, negative = inhibition, actives largely listed as inhibitors; hit rate 1.8% among 300,000; AID 540276; active = well fitted inhibition curve with a large enough effect; inconclusive = small, poorly fitted or top-dose-only effect, or effect the other way; inactive = flat fitted curve, though single readings scatter; tested in HEK293 cells; about a fifth of its hits are not listed in these tables; also: % is scaled to controls: 0 for no effect and ±100 for the full control effect; luciferase read-out
SARS PLpro yeast: inhibitors of SARS-CoV papain-like protease in yeast; AID 485353; hit rate 0.19% among 330,000; Potency, µM (top dose mostly 32.9 µM), for the others: top-dose activity, positive = growth rescue; S. cerevisiae expressing SARS-CoV PLpro, growth rescue; control for the full effect not named in the record; also: 0% is about no effect; nearly all actives have a fitted effect of over 55% in size; growth read by luminescence after 48 h
2A StopGo: lowers the luciferase signal of an FMDV 2A StopGo reporter. human cells with a luciferase reporter of 2A StopGo recoding; control for the full effect not named in the record. Potency, µM (top dose mostly 57.9 µM), inactives show at the highest dose signal change, negative = less light. hit rate 1.2% among 410,000. AID 1159524; active = well fitted falling curve with a large enough effect; inconclusive = small, poorly fitted or top-dose-only effect; inactive = no such curve, though single readings can be large or run the other way; tested in HEK293T cells; also: % is scaled to controls: 0 for no effect and ±100 for the full control effect; nearly all actives have a fitted effect of over 45% in size; luciferase light after 4 h
NS1 function inh: inhibitors of influenza NS1 protein function. Potency, µM (titrated, usually from 46.1 µM), without a hit: at the top dose activity, positive = more growth. S. cerevisiae slowed by influenza A NS1, growth recovery by OD600. hit rate 0.4% among 270,000; also: actives are rising curves; nearly all actives have a fitted effect of over 50% in size
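Recovery from NS1-induced slow growth read by OD600 in budding yeast switched to galactose assay medium (pH 6.0, -URA) at 1:100 dilution. Compound 23 nl per well; the matching strain lacking NS1 serves as control.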
Cruzain Triton: inhibitors of Trypanosoma cruzi cruzain with detergent; P25779; purified cruzain, Z-FR-AMC fluorescence, 0.01% Triton; Potency, µM, inactives show max response, negative = inhibition, actives largely listed as inhibitors; hit rate 0.43% among 200,000; AID 1478; active = well fitted curve in the direction sought with a large enough effect; inconclusive = small, poorly fitted or top-dose-only effect, or another doubt; inactive = no such curve, though single readings can be large; an effect the other way counts as inactive or inconclusive;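 also: plate controls were neutral wells for no effect and buffer without enzyme for full effect; nearly all actives have a fitted effect of over 40% in size; top concentration of the series not given in the record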
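Read-out: AMC fluorescence (360 nm excitation, 450 nm emission), four reads over 2 min, first-to-third difference used. Conditions: cruzain 1.5 nM, Z-FR-AMC 2 uM, pH 5.5 acetate, 5 mM DTT, 0.01% Triton X-100.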
RE007 growth inh: less growth of the S. pombe RE007 Vpr strain; S. pombe RE007 Vpr strain, BacTiter-Glo ATP luminescence, 24 h; control for the full effect not named in the record; Potency, µM (series often up to 92.2 µM), without a hit: top-dose activity change, negative = less growth; hit rate 0.21% among 360,000; AID 651644; active = well fitted falling curve with a large enough effect; inconclusive = small, poorly fitted or top-dose-only effect; inactive = no such curve, though single readings can be large or run the other way;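 also: % is scaled to controls: 0 for no effect and ±100 for the full control effect; nearly all actives have a fitted effect of over 50% in size; the assay follows cell death caused by Vpr and the record does not say whether a fall means rescue or toxicity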
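Fission yeast strain RE007, carrying one chromosomally integrated HIV-1 vpr copy, was seeded at OD 0.01 in PMG+AL medium with 23 nL pinned compound. After 24 h at 30 °C and 99% humidity, viability was read by BacTiter-Glo luminescence.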
Numbers without * were called inactive; ? = inconclusive; · = not tested or not shown; [ ] = remark or other dose. Unless noted, calls follow the shape of the dose curve; as a rule, active means well fitted rising curve with a large enough effect; inconclusive means small, poorly fitted or top-dose-only effect; inactive means no such curve, though single readings can be large or run the other way. Potency is read from the fitted curve at half-maximal effect.

SMILES	Cruzain inh noDet	Lassa entry inh	Marburg entry inh	SARS PLpro yeast	2A StopGo	NS1 function inh	Cruzain Triton	RE007 growth inh
Cc1ccc2c(cnn2C(=O)CCCC(=O)NC(C)c2ccccc2)c1 (stereo not given)	·	·	·	-4%	13%	-69%	·	19%
Cc1ccc(CNC(=O)Cc2c(C(=O)O)c(C)cn2C)cc1	8%	-6%[46.1 µM]	·	·	-13%	·	4.0%	·
CCOc1ccc(C(=O)OCC(=O)N2CC(C)OC(C)C2)cc1OCC (stereo not given)	·	0%[46.1 µM]	5%[46.1 µM]	-2%	5%	13%	·	-13%
CN1CCc2c(sc3c2c(=O)n(-c2ccccc2)c2n[nH]c(=S)n32)C1	2%	17%	-17%	3%	-14%	24%	-0.7%	-14%
Cc1cc(C)n(CC(=O)Nc2ccccc2)n1	5%	4%	17%	-5%	6%	0%	3.6%	16%
N#C/C(=C\c1ccc(-c2ccc(Br)cc2)o1)C(=O)NCCc1c[nH]c2ccccc12	?	?	?	-2%	-9%	18%	-0.3%	-2%
COc1ccc(/C=N/NC(=O)c2cc(-c3ccccc3OC(C)C)nc3ccccc23)cc1CN1CCOCC1	5%	?	?	-2%	-24%	0%	-8.9%	1%
COc1cccc(C(=O)N(Cc2ccc(N(C)C)cc2)Cc2ccco2)c1	-13%	?	-3%[46.1 µM]	·	-1%	·	-7.0%	·
CS(=O)(=O)c1ccc(Cl)c(NC(=O)COC(=O)c2cccc(S(=O)(=O)N3CCCCC3)c2)c1	·	-9%	19%	?	-6%	2%	·	0%
O=C(Cc1ccccc1)N/N=C/c1cc2c(cc1Cl)OCO2	-21%	-16%	-24%	-8%	39%[activator]	-1%	-2.3%	20%
Cc1ccc2nc(-c3ccc(NC(=O)Cc4ccccc4)cc3)sc2c1	?	?	·	·	61%[activator]	·	-1.6%	·
COc1ccc(-c2noc(CCCC(=O)Nc3ccc(C(N)=O)cc3)n2)cc1	7%	?	?	5%	?	8%	-1.4%	-2%
Cc1cccc(C)c1NC(=O)Cn1cnc2c(=O)n(C)c(=O)n(C)c21	-3%	-5%	14%	1%	-17%	-3%	-5.3%	-5%
CC1C(c2ccccc2)N(C)C(c2ccccc2)CC1(O)c1ccc(F)cc1 (stereo not given)	·	?	?	-4%	?	·	·	-5%
CC1(C)CN(c2cccc(C#N)c2)C1=O	·	3%	?	-2%	-13%	·	·	-8%
CCOc1ccc(NCc2cccn2-c2nnc(N3CCC(C(=O)NCCCN4CC(C)CC(C)C4)CC3)s2)cc1 (stereo not given)	·	-30%	?	-15%	0%	-2%	·	-15%
Cc1ccc(Cc2nc3ccccc3nc2SCC(=O)NCc2ccc(F)cc2)cc1	-6%	19%[46.1 µM]	·	·	-19%	·	1.1%	·
CS/C(N)=N/N=C/c1cc(C)ccc1O	·	·	·	-3%	0%	-32%	·	-11%
COc1ccc(CC(=O)N2CCN=C2SC)cc1OC	·	15%	-5%	-1%	-1%	1%	·	-1%
Fc1nc(N2CCCC2)c(F)c(Oc2ccccc2Oc2c(F)c(F)nc(N3CCCC3)c2F)c1F	-30%	-2%	4%	1%	3%	-2%	3.6%	11%
CN1CCN(CCNC(=O)c2cc3c(=O)n(C)c4ccccc4c3n2C)CC1	-9%	·	·	3%	-12%	-6%	-16%	-6%
Cn1c(SCC(=O)c2ccc(F)cc2)nnc1-c1cnccn1	-3%	5%	?	-1%	52%[activator]	?	-0.5%	2%
Nc1nnc(SCC(=O)Nc2ccc(S(=O)(=O)N3CCOCC3)cc2)s1	6%	-19%	5%	-4%	3%	11%	4.0%	7%
CC(C)=C(NC(=O)c1ccccc1)C(=O)Nc1ccc(C(=O)O)cc1	·	·	·	0%	-7%	4%	·	13%
CC(=O)N1N=C(c2ccc3nccnc3c2)CC1c1ccccc1 (stereo not given)	0%	0%	-3%	11%	28%	7%	2.9%	-3%
O=C(Nc1ccc(Cc2ccncc2)cc1)c1cc([N+](=O)[O-])ccc1N1CCOCC1	·	·	·	-1%	-18%	0%	·	-7%
COc1ccc(CNC(=O)CC2Sc3ccccc3NC2=O)cc1 (stereo not given)	·	·	·	1%	10%	1%	·	-15%
Cc1ccc(-c2nc3c(c(=O)[nH]c(=O)n3Cc3ccccc3)n2Cc2ccccc2)o1	·	?	?	0%	?	·	·	-3%
Cc1ccc2nc3c(cc(C#N)c(=N)n3CC3CCCO3)c(=O)n2c1 (stereo not given)	15%	·	4%	7%	·	-6%	-12%	·
CC(C)Cc1ccc(C2=CSC3=NCCN23)cc1	·	?	?	·	-16%	·	·	-4%
COCc1ccc(C(=O)N2CCCCC2C(=O)Nc2ccc(-n3nc(C)cc3C)cc2)o1 (stereo not given)	·	?	-29%	12%	?	4%	·	14%
O=C(NCCOc1ccc(Cl)cc1)C(=O)NCC1CCCO1 (stereo not given)	·	·	16%[46.1 µM]	-1%	-4%	-1%	·	6%
CC1CN(C(=O)c2ccccc2Nc2ccc(SC(F)F)cc2)CC(C)O1 (stereo not given)	·	1%	?	-1%	5%	·	·	-6%
COC(=O)C1CCN(CC(=O)Nc2sc3c(c2C#N)CCC3)CC1	-17%	9%	10%[46.1 µM]	-15%	-1%	9%	0.6%	-3%
O=C(O)c1ccc(Cl)c(S(=O)(=O)N2CCCCCC2)c1	-10%	5%	1%	-1%	·	-2%	1.6%	-2%
CCN(CCn1cccn1)C(=O)c1cc(COc2cccc3cccnc23)on1	·	-7%[46.1 µM]	?	1%	-2%	1%	·	-5%
O=C(Cn1cnc2c(nnn2Cc2ccc(F)cc2)c1=O)N1CCCc2ccccc21	-6%	-3%	-1%	-4%	-8%	1%	-2.1%	-5%
C=CCN1C(=O)[C@@H]2Cc3c([nH]c4ccccc34)C(c3cc(OC)c(OC)c(OC)c3)N2C1=S (stereo not given in full)	·	·	·	0%	-19%	1%	·	4%
O=C(Nc1ccc2c(c1)OCCO2)C1CCN(S(=O)(=O)c2cccs2)CC1	-5%	-1%	13%	-4%	-3%	-7%	2.5%	3%
CCCn1c(C2CCCN2c2nc(-c3ccc(C)cc3)cs2)nc2cc(Cl)c(N3CCCCC3)cc21 (stereo not given)	·	·	·	-2%	0%	?	·	6%
Cc1cc(NCc2ccccc2)n2ncnc2n1	·	·	·	-1%	11%	1%	·	-3%
Cc1ccc(C(=O)CSc2nnc(CNc3nc(-c4ccccc4)cs3)n2C)cc1	?	-12%	?	-2%	0%	3.2µM*	-3.2%	13%
CCOC(=O)C1CCN(c2ncnc3c(C)csc23)CC1	·	?	9%[46.1 µM]	-4%	-23%	-10%	·	9%
CCC/C(O)=C1\C(=O)CCCC1=NCCc1c(C)[nH]c2ccc(C)cc12	·	·	·	1%	-28%	-19%	·	-4%
CC(C)c1c(C(=O)N/N=C/c2cccc3ccccc23)nnn1-c1nonc1N	·	·	·	-1%	-6%	-21%	·	4%
COc1ccc(CCNC(=O)C(=O)NCc2ccc(Cl)cc2)cc1OC	·	-7%	-1%[46.1 µM]	1%	-13%	·	·	4%
CCOc1ccccc1NC(=O)Cn1c(=O)n(Cc2nc(C)no2)c(=O)c2ccccc21	23%	-6%[46.1 µM]	·	·	-15%	·	-2.6%	·
CCOc1ccc(C(=O)N/N=C(\c2ccccc2)c2ccccn2)cc1	-1%	7.1µM*	?	-38%	0%	-64%	-7.5%	0%
Cc1ccn2c(CNCCn3nc(C)cc3C)c(C(=O)N3CCCCCC3)nc2c1	·	11%[46.1 µM]	-13%[46.1 µM]	0%	-1%	-4%	·	-5%
O=C(O)CSc1ncnc2sc(-c3ccccc3)cc12	·	-9%	?	2%	31%[activator]	0%	·	-5%
COCCn1c(CCC(=O)Nc2cc(C)ccc2C)nc2cccnc21	?	?	-7%[46.1 µM]	·	-18%	·	1.7%	·

Filtered by structure: those above containing an aryl methoxy group
SMILES	Cruzain inh noDet	Lassa entry inh	Marburg entry inh	SARS PLpro yeast	2A StopGo	NS1 function inh	Cruzain Triton	RE007 growth inh
COc1ccc(/C=N/NC(=O)c2cc(-c3ccccc3OC(C)C)nc3ccccc23)cc1CN1CCOCC1	5%	?	?	-2%	-24%	0%	-8.9%	1%
COc1cccc(C(=O)N(Cc2ccc(N(C)C)cc2)Cc2ccco2)c1	-13%	?	-3%[46.1 µM]	·	-1%	·	-7.0%	·
COc1ccc(-c2noc(CCCC(=O)Nc3ccc(C(N)=O)cc3)n2)cc1	7%	?	?	5%	?	8%	-1.4%	-2%
COc1ccc(CC(=O)N2CCN=C2SC)cc1OC	·	15%	-5%	-1%	-1%	1%	·	-1%
COc1ccc(CNC(=O)CC2Sc3ccccc3NC2=O)cc1 (stereo not given)	·	·	·	1%	10%	1%	·	-15%
C=CCN1C(=O)[C@@H]2Cc3c([nH]c4ccccc34)C(c3cc(OC)c(OC)c(OC)c3)N2C1=S (stereo not given in full)	·	·	·	0%	-19%	1%	·	4%
COc1ccc(CCNC(=O)C(=O)NCc2ccc(Cl)cc2)cc1OC	·	-7%	-1%[46.1 µM]	1%	-13%	·	·	4%
